Bioassay records as filed in PubChem BioAssay.
KAT2A inh = blocks human GCN5L2 histone acetyltransferase; GCN5L2 HAT assay, ThioGlo1 CoA-SH fluorescence; Potency, µM (doses to about 58.9 µM), for inactives: top-dose activity change, negative = inhibition, hits mostly inhibitors; 390,000 tested, 0.21% active; active = well fitted inhibition curve with a large enough effect; inconclusive = small, poorly fitted or top-dose-only effect, or another doubt; inactive = no such curve, though single readings can be large or run the other way
Target sequence (Q92830 whole entry, looked up): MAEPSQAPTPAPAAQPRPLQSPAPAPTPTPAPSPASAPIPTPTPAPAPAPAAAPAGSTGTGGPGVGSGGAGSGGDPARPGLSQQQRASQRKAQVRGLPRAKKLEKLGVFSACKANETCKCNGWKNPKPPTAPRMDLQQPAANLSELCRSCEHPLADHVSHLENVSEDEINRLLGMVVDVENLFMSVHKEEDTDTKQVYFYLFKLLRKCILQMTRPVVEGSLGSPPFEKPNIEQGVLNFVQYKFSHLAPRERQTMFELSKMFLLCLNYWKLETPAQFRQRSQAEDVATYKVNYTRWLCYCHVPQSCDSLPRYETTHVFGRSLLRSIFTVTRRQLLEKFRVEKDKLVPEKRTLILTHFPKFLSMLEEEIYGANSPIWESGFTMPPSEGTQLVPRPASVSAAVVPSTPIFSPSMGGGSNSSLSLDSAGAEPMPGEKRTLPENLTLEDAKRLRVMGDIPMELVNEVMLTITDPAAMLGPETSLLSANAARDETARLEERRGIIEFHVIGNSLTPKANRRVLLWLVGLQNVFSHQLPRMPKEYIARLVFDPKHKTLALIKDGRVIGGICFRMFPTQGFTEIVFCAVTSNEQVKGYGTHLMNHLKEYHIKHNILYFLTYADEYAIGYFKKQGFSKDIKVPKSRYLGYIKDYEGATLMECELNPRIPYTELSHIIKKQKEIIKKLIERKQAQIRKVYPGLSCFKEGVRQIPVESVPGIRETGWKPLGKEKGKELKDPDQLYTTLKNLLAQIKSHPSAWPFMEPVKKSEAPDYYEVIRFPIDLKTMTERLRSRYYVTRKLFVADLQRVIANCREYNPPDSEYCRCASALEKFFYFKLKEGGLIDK
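Fluorescence readout, Ex340nm/Em540nm: ThioGlo1 (50uM final) reacts with free CoA thiol released as 20nM GCN5L2 acetylates H3(1-25) peptide (75uM) using acetyl-CoA (70uM). Compound and enzyme sat 15 min beforehand; 20 min room-temperature reaction.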
Numbers without * were called inactive; ? = inconclusive; & = joins results of further samples; [ ] = dose if it differs, or a comment. % is set by controls: 0 for no effect and ±100 for the full control effect; potency is the fitted concentration of half-maximal effect. This is a subset, and most or all hits are left out here.

SMILES	KAT2A inh
CS(=O)(=O)c1ncc(Cl)c(C(=O)Nc2c(C(=O)Nc3ccccc3)oc3ccccc23)n1	-1%
O=C(c1ccc2c(Cl)c3c(nc2c1)CCCC3)N1CCN(c2ccccc2F)CC1	-7%
COC(=O)c1ccccc1NC(=O)CN1CCc2ccccc2C1	-3%
CC(=O)c1ccc(NC(=O)/C(=C\c2ccc(F)cc2)NC(=O)c2ccco2)cc1	-7%
CCOc1cccc(C(=O)Nc2ccc(-c3nc4ncccc4o3)cc2C)c1	-6%
CCOc1ccc(CCNC(=O)COC(=O)c2nc3nc(C)cc(C)n3n2)cc1OCC	0%
Cc1nnc(N(C)C(=O)c2cnccn2)s1	4%
Nc1cnn(C2CCCO2)c(=O)n1 (centres undefined)	8%
CN(C)CCCCOc1ccccc1F	-4%
CC1CCc2c(nc3ncnn3c2N2CCN(c3ccccc3F)CC2)C1 (centres undefined)	-2%
Cn1cccc1C(=O)NC(=O)COC(=O)CNS(=O)(=O)c1ccc(Br)cc1	-14%
Cc1nn2c(=O)c3c4c(sc3nc2n1-c1ccccc1)COC(C)(C)C4	-4%
COc1ccc(OCc2cccc(C(=O)Nn3cc([N+](=O)[O-])cn3)c2)cc1	-6%
CC(=O)c1c(C)[nH]c(C(=O)OCC(=O)Nc2cccc(S(=O)(=O)N3CCCC3)c2)c1C	1%
Cc1cc(C)n(CC(=O)n2c3c(c4ccccc42)CCCC3)n1	0%
COc1cccc(/C(C)=N/NC(=O)Cc2c(C)[nH][nH]c2=O)c1	8%
CCCc1nc2oc3c(NCCN4CCOCC4)ncnc3c2c2c1CCCC2	1%
Cc1ccc(F)c(NC(=O)CCc2ccccc2)c1	-6%
Cc1nn(C)cc1S(=O)(=O)N1CCN(c2cccc(Cl)c2)CC1	-4%
Fc1ccc(CNc2cc(-c3ccccc3)nc3nncn23)cc1	-1%

Sorted by the number under KAT2A inh (rising): 5 of the compounds above
SMILES	KAT2A inh
Cc1ccc(F)c(NC(=O)CCc2ccccc2)c1	-6%
CN(C)CCCCOc1ccccc1F	-4%
CC1CCc2c(nc3ncnn3c2N2CCN(c3ccccc3F)CC2)C1 (centres undefined)	-2%
Fc1ccc(CNc2cc(-c3ccccc3)nc3nncn23)cc1	-1%
Cc1nnc(N(C)C(=O)c2cnccn2)s1	4%

Next structures
SMILES	KAT2A inh
COc1ccc(Nc2ccc(C(N)=O)cc2[N+](=O)[O-])cc1	0%
O=S(=O)(/N=C(/c1ccccc1)N1CCOCC1)c1ccc(F)cc1F	-3%
Cc1cc2oc(C(=O)Nc3c(C)n(C)n(-c4ccccc4)c3=O)c(C)c2cc1Cl	3%
CCN(CC(=O)Nc1ccc(NC(C)=O)cc1)C(=O)Cc1c(Cl)cccc1Cl	0%
O=C1c2ccccc2-c2nccnc21	-22%
O=C(NCc1csc(-c2ccccc2)n1)c1cc(F)cc2c1OCOC2	-3%
COc1ccc(C(=O)Nn2cnnc2)cc1	-7%
COc1cccc(CCNC(=O)c2cc(COc3c(F)cccc3F)on2)c1	3%
O=C(COc1ccccc1C(=O)O)NC1CCCc2ccccc21 (centres undefined)	0%
COc1cc(S(=O)(=O)N2CCOCC2)ccc1NC(=O)COC(=O)C12CC3CC(CC(C3)C1)C2	1%
COc1ccc(C2C3=C(CC(C)(C)CC3=O)Oc3ncn(CCCn4ccnc4)c(=N)c32)cc1 (centres undefined)	-2%
CCCn1c(SCC(=O)NCc2ccccc2)nnc1-c1ccncc1	-1%[0.501 µM]
COc1ccc(C(=O)COC(=O)c2cc(C)no2)c(OC)c1	-16%
CN1C(=O)SC(Nc2ccccc2C(=O)O)C1=O (centres undefined)	-5%
CC(=O)N1CCN(Cc2nc3scc(-c4ccccc4)c3c(=O)[nH]2)CC1	-7%
COCCN(C(=O)COC(=O)CCC1CCCC1)c1c(N)n(Cc2ccccc2)c(=O)[nH]c1=O	-5%
CCCN(C(=O)CSCC(=O)Nc1cccc(C)c1)c1c(N)n(Cc2ccccc2)c(=O)[nH]c1=O	-21%
CCOC(=O)c1ccc(N=c2sc(C(=O)OC)cc(=O)n2-c2ccc(C(=O)OCC)cc2)cc1	-10%
CN(c1ccccc1C(=O)Nc1ccc2c(c1)OCCO2)S(C)(=O)=O	1%
CCOC(=O)Cc1c(C)nc2cc(-c3ccc(C(C)(C)C)cc3)[nH]n2c1=O	-5%

Rewritten field by field: entries from further up.
compound: COc1ccc(C(=O)COC(=O)c2cc(C)no2)c(OC)c1
  KAT2A inh: -16%

compound: CCCN(C(=O)CSCC(=O)Nc1cccc(C)c1)c1c(N)n(Cc2ccccc2)c(=O)[nH]c1=O
  KAT2A inh: -21%

Carrying on:
SMILES	KAT2A inh
CC(=O)Nc1cccc(N2C(=O)CC(Cc3ccccc3)C2=O)c1 (centres undefined)	1%
COCCN(Cc1ccccc1)C(=S)Nc1ccc(Cl)cc1	-12%
Cc1cc(C)n2ncc(C(=O)Nc3ccc4c(c3)OCO4)c2n1	-1%
CCCn1nnc(NC(=O)c2cc3ccccc3o2)n1	-12%
COc1ccc(OC)c(S(=O)(=O)N2CCCC(C(=O)N3CCCC3)C2)c1 (centres undefined)	1%
O=C1S/C(=C\c2ccccn2)C(=O)N1Cc1ccccc1F	-5%
CCCn1nc(C(=O)NCCN2CCOCC2)c2ccccc2c1=O	-13%
COc1cccc(NC(=O)COc2coc(CN3CCN(c4ccccc4)CC3)cc2=O)c1	1%
O=C(Nc1ccc2c(c1)OCO2)NC1CCN(Cc2ccccc2)CC1	0%
C=CCOc1nc(N(C)C)nc(N(C)C)n1	-2%
CC(C)CC(NC(=O)C(NC(=O)C1OC2OC(C)(C)OC2C2OC(C)(C)OC12)C(C)C)C(=O)O (centres undefined)	-5%
CCOc1ccccc1NC(=O)Cn1c(=O)n(-c2cccc(C)c2)c(=O)c2c1c1cc(OC)ccc1n2C	-3%
CCOC(=O)C1=C(C)NC(=O)C1CC(=O)O (centres undefined)	21%
CC(C)c1cc(C(=O)Nc2cc(Br)ccc2O)no1	-8%
Cc1ccccc1C(=O)Nc1ccccc1N1CCN(C(=O)c2ccccc2)CC1	-2%
O=C1NC[C@@H](Cc2cccc3ccccc23)N(CC2(c3ccccc3)CC2)C1=O	-1%
Cc1onc(-c2c(F)cccc2Cl)c1C(=O)NC1C(=O)N2C1SC(C)(C)C2C(=O)O (centres undefined)	-3%
O=C(COC(=O)CCN1C(=O)c2ccccc2C1=O)Nc1ccccc1[N+](=O)[O-]	-3%
O=S(=O)(NCc1ccc2c(c1)OCO2)c1cccc(S(=O)(=O)N2CCOCC2)c1	-5%
CCC(=O)Nc1ccc2nc(SCCOc3cccc(C)c3)sc2c1	-7%
COc1cc(Cl)c(S(=O)(=O)NCCN2CCOCC2)cc1Cl	-13%
O=S(=O)(Nc1ccc(Br)cn1)c1cccs1	17%
CC(C)NC(=S)N(C)C1(c2ccccc2Cl)CCCCC1=O (centres undefined)	-1%
N#Cc1cc(Br)ccc1N=C1CCCN1c1ccccc1	-10%
COCc1cc(CN(C)C(=O)c2oc3c(F)cccc3c2C)[nH]n1	-1%
N/C(=N\O)c1cccc(CS(=O)(=O)c2ccccn2)c1	-7%
O=C(CCC(=O)c1ccc(Br)cc1)Nc1cccc(C(F)(F)F)c1	-10%
O=C(C1CCCCC1)N(CCN1CCCC1)c1nc2ccccc2s1	-5%
Cc1cc(SCC(=O)Nc2cccc(S(N)(=O)=O)c2)c(C)cc1Br	-12%
O=C(NCC1OCCc2ccccc21)c1ccc(NC(=O)c2ccc(Cl)cc2Cl)cc1 (centres undefined)	25%
CC1(C)Cc2nc(-c3ccccc3)nc(SCC(=O)N3CCOCC3)c2CO1	-27%
O=C(Nc1nccs1)c1cccc(S(=O)(=O)N2CCOCC2)c1	-4%
CCOC(=O)CSc1nnc(CCCCCN2C(=O)c3cccc4cccc(c34)C2=O)o1	-4%
CCOc1ccccc1C(=O)NCC(=O)OCC(=O)NCCc1ccc(S(N)(=O)=O)cc1	-3%
Cc1cc(OCC(=O)NNC(=S)NC(=O)c2ccc(Br)o2)ccc1Cl	-5%
CC1CCN(S(=O)(=O)c2cc(C(=O)NCc3ccccc3)n(C)c2)CC1	-8%
Cc1nc(C(C)NC(=O)CCc2nnc(-c3ccsc3)o2)cs1 (centres undefined)	3%
COc1cc(O)c(C(=O)O)c(CCc2ccccc2)c1	-6%
CCOC(=O)c1c(-c2ccc(Cl)cc2)cn2ccccc12	?
Cc1cccc(C(=O)NCCC(=O)NCc2ccccc2Cl)c1	3%
S=C(NCc1ccc2[nH]c3c(c2c1)CCCC3)Nc1ccccc1	-9%
COc1cc(NC(=O)c2ccco2)c(OC)cc1NC(=O)CSc1nnc(-c2cccs2)n1C	-3%
O=C(COc1ccccc1[N+](=O)[O-])NCC1COc2ccccc2O1 (centres undefined)	-4%
COc1ccc(/C=N/NC(N)=S)cc1OC(=O)c1ccccc1	-10%
CCCSc1nsc(NC(=O)c2cccnc2OCC)n1	-16%
COc1ccc(NC(=O)C(C)N(c2ccc(C)cc2)S(C)(=O)=O)cc1 (centres undefined)	-10%
O=C(CCC(=O)NC1CCN(Cc2ccccc2)CC1)NCc1ccco1	-6%
O=C(OC1CCOC1=O)c1cc(-c2ccccc2)nc2ccccc12 (centres undefined)	-3%
COCCNC(=O)c1ccc(-n2c(SCc3cc(F)ccc3F)nc3ccccc3c2=O)cc1	2%
S=C(c1ccc2c(c1)OCO2)N1CCOCC1	0%
O=C(CCC(=O)c1cccs1)NC1CCCCCC1	-13%
CCC(C(=O)Nc1ccccc1OC)n1nc(C)c2sc3ccccc3c2c1=O (centres undefined)	0%
CCOC(=O)c1ccc(NC(=O)CCc2nnc3ccc(N4CCN(C)CC4)nn23)cc1	-9%
Fc1cccc(-c2c(-c3ccccc3)ncc3cc(F)ccc23)c1	-5%
Cc1ccc(OCc2nc(-c3ccc(C(=O)N4CCN(c5ccccc5)CC4)cc3)oc2C)cc1	-7%
CN1CC(=O)N(CC(=O)NCc2ccc(F)cc2)c2ccccc2C1=O	-2%
Cc1cccc(Sc2nc(-c3ccccc3)ccc2C#N)c1	9%
COC(=O)c1ccc(NC(=O)C[n+]2ccccc2C)cc1	0%
CC(NC(=O)CN(C)CC(=O)Nc1ccccc1Br)c1ccccc1 (centres undefined)	1%
COc1ccc(CC(=O)c2ccc(O)cc2O)cc1OC	-2%

The list goes on; the last 2 above are carried over.
SMILES	KAT2A inh
CC(NC(=O)CN(C)CC(=O)Nc1ccccc1Br)c1ccccc1 (centres undefined)	1%
COc1ccc(CC(=O)c2ccc(O)cc2O)cc1OC	-2%
O=C(c1ccco1)N(CCCN1CCOCC1)c1nc(-c2ccc(Cl)cc2)cs1	-16%
Cc1ccc(OCc2n[nH]c(=S)n2-c2ccc(C)cc2)cc1	4%
C#CCSc1nnc(-c2ccc([N+](=O)[O-])cc2)o1	-11%
COC(=O)C1=C(C)NC(C)=C(C(=O)OC)C1c1ccc(NC(C)=O)cc1	-11%
CSc1nnc2c3c4c(sc3c(=O)n(-c3ccccc3)n12)CC(C)(C)OC4	-1%
COc1ccc(N2CCN(C(=O)CN3C(=O)NC(C)(c4ccc5ccccc5c4)C3=O)CC2)cc1 (centres undefined)	-1%
CC1(C)CC(=O)c2ccc(O)cc2O1	-9%
COc1ccc(OC)c(NC(=O)Cc2c(C)n(C(=O)c3ccc(Cl)cc3)c3ccc(OC)cc23)c1	-6%
CC1CN(C(=O)c2ccc(N3CCCCC3)c([N+](=O)[O-])c2)CC(C)O1 (centres undefined)	-1%
Cc1ccc(S(=O)(=O)N2CCCc3cc(NS(=O)(=O)c4ccc(F)c(C)c4)ccc32)cc1	-12%
COc1cccc(C2SCC(=O)N2c2cccc(C)c2)c1OC (centres undefined)	-3%
CCN(CC)C1CCN(C(=O)c2ccc(OC3CCN(Cc4ccccn4)CC3)cc2)C1 (centres undefined)	-5%
O=C(O)c1ccc(NS(=O)(=O)c2ccc(C(=O)Nc3ccccc3)cc2)cc1	0%
COC(=O)C(C)Sc1ccc2nnc(CCNS(=O)(=O)c3ccc(C)cc3)n2n1 (centres undefined)	-3%&-10%
CCOc1ccc(NC(=O)C[n+]2ccc(N(C)C)cc2)cc1	-6%
COc1ccc(NS(=O)(=O)c2cc(NC(=O)c3ccccc3)ccc2N2CCOCC2)cc1	-12%
O=C(C(=O)N1CC=C(c2ccccc2)CC1)c1c[nH]c2ccccc12	-10%
CC1CCn2c(nc3cc(C(=O)NCCc4ccc(Cl)cc4)ccc32)C1 (centres undefined)	-7%
C=CCNC(=O)c1ccc(CNS(=O)(=O)c2ccc(NC(C)=O)cc2)cc1	-2%
CN(CC(=O)Nc1ccc(F)c(F)c1F)C(=O)c1ccc(=O)[nH]c1	-6%

A few values from the list.
`CC(C)NC(=S)N(C)C1(c2ccccc2Cl)CCCCC1=O` (centres undefined) @ KAT2A inh: -1%
`O=C(C1CCCCC1)N(CCN1CCCC1)c1nc2ccccc2s1` @ KAT2A inh: -5%
`Cc1cc(C)n2ncc(C(=O)Nc3ccc4c(c3)OCO4)c2n1` @ KAT2A inh: -1%
`COc1cccc(NC(=O)COc2coc(CN3CCN(c4ccccc4)CC3)cc2=O)c1` @ KAT2A inh: 1%

Other records follow.
SMILES	KAT2A inh
Brc1ccc(-c2cn3c(n2)SCC3)cc1	-3%
COc1cccc(C2=NOC(C(=O)Nc3ccc(C(C)=O)cc3)C2)c1 (centres undefined)	1%
COc1cccc2c1cc1c(=O)n(CC(=O)N3CCN(c4cccc(C(F)(F)F)c4)CC3)nc(C)n12	-2%
CCOC(=O)N1CCC(Nc2c(Nc3ccc(C)c(C)c3)c(=O)c2=O)CC1	-19%
CN(Cc1ccco1)C(=O)CSc1nc(C2CC2)n(-c2ccccc2)n1	-11%
COc1cccc(NC(=O)Cn2c(CCC(=O)O)ccc2-c2cccs2)c1	3%
COc1ccc(NC(=S)Nc2nc(CC(=O)Nc3ccccc3OC)cs2)cc1	-5%
O=C(COc1ncnc2ccccc12)N1CCN(C(=O)c2ccco2)CC1	-1%
CCOc1ccc(OCC)c(S(=O)(=O)N2CCOCC2)c1	1%
O=C(Nc1nc(-c2nc3ccccc3s2)cs1)c1ccco1	-4%
